Source: PubChem
N370S GC mod: qHTS Assay for Inhibitors and Activators of N370S glucocerebrosidase as a Potential Chaperone Treatment of Gaucher Disease; N370S GC spleen homogenate, 4MU-glucoside fluorescence; Potency, µM (doses to about 59.4 µM), for inactives: at the highest dose activity change, negative = inhibition, usual class: inhibitors; actives 0.092% (n = 330,000); AID 2101, 2009;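 further: 0% = full enzyme activity and -100% = no enzyme basal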
FEN1 inh: qHTS Assay for the Inhibitors of Human Flap endonuclease 1 (FEN1) | Recombinant FEN1 flap cleavage, fluorescence, 15 min | Potency, µM (series often up to 114 µM), inactives show at the top dose activity change, negative = inhibition, usual class: inhibitors | actives 0.35% (n = 390,000); further: nearly all actives have a fitted effect of over 65% in size
Target sequence (P39748 whole entry, looked up): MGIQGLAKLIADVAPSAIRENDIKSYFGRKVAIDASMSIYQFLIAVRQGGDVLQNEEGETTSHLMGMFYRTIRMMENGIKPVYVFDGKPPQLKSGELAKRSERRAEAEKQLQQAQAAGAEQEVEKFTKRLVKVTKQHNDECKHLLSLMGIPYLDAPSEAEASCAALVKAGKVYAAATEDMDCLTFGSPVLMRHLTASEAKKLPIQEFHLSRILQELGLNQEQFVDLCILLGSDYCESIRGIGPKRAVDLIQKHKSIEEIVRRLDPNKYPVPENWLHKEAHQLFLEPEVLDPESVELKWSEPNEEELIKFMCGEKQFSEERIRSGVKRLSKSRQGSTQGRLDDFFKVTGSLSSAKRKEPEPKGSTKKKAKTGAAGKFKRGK
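Compounds are tested as a concentration series against 10 nM FEN1; after a 15 min room-temperature preincubation, 50 nM substrate starts cleavage, with plate reads at 0 and 15 min. Normalized responses are fitted by a Hill equation.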
An asterisk follows results filed as active; ? = inconclusive; . = no result given; & = joins results of further samples; [ ] = dose if it differs, or a comment. The call rests on the fitted dose curve; in most records, active means well fitted curve in the direction sought with a large enough effect; inconclusive means small, poorly fitted or top-dose-only effect, or another doubt; inactive means no such curve, though single readings can be large; an effect the other way counts as inactive or inconclusive. Unless noted, on the % scale 0 is the no-effect control and ±100 the full control effect; potency means the concentration at half of the fitted maximal effect. This is a subset, and most or all hits are left out here.

SMILES	N370S GC mod	FEN1 inh
COC(=O)c1ccccc1NC(=O)c1cnn2c(C)cc(C)nc12	?	-16%
CCC(=O)n1nc(-c2cccnc2)nc1NCc1ccccc1	8%	?
COc1cccc(C(=O)Nc2c3c(nn2-c2cccc(C)c2C)CS(=O)C3)c1OC (stereo not drawn)	-2%	0%
COc1ccc(-n2c(N)c(C#N)c3ccc([N+](=O)[O-])cc3c2=O)cc1	4%	4%
COCCCNC(=S)NNC(=O)c1ccc(S(=O)(=O)N2CCC(C)CC2)cc1	-3%	10%
CCOc1cc(C(N)=O)cc(Br)c1OC	8%	-6%
CC(C)(C)C(=O)CSc1ccc(S(=O)(=O)N2CCN(Cc3ccccc3)CC2)cn1	.	-15%
CSc1nc(-c2ccccc2)nc(NC(=O)C(C)C)c1C(C)=O	3%	0%
CCCN1C(=O)C(=O)c2cc(Cl)ccc21	.	1%
COc1ccc(C(=O)Nc2ccc(C(=O)N3CCCCC3)cc2)cc1OC	-6%	7%
COc1ccccc1C=NNC(=O)c1ccccc1OCCOc1ccccc1	.	6%
COc1cc(C(=O)NCCNC(=O)C2CCCNC2=O)cc(OC)c1OC (stereo not drawn)	1%	3%
O=C(CC(=O)N/N=C/c1ccc(O)cc1)N/N=C/c1ccc(O)cc1	-12%	-2%
CC(C)[C@H](NC(=O)c1nn(Cc2ccccc2)c(=O)c2ccccc12)C(=O)O	7%	-10%
CC1=C(C(=O)N2CCOCC2)C(c2cc(C)cs2)NC(=O)N1 (stereo not drawn)	12%	9%
CC1CCCCC12NC(=O)N(CC(=O)NCCc1ccccc1)C2=O (stereo not drawn)	.	-5%
COc1ccc(-c2[nH]ncc2CN2CCN(C(=O)c3ccco3)CC2)cc1F	0%	15%
Cc1ccc(CNC(=O)c2ccc(N3CCC4(CC3)CC(c3ccccc3)=NO4)c(N)c2)cc1	-1%	-1%
Cc1cccc(NC(=O)c2ccc(CN3CCN(Cc4ccccc4)CC3)cc2)c1	-16%	8%
CC1=C(C)[N+](=O)C2(O)CCCCC2(C)N1[O-] (stereo not drawn)	-26%	9%
CCOC(=O)N1CCN(C(=O)c2cn(C)c3ccc(S(=O)(=O)N4CCC(C)CC4)cc3c2=O)CC1	-2%	-16%
Cc1c(C2(c3c(C)n(C)n(-c4ccccc4)c3=O)C(=O)Nc3ccc(F)cc32)c(=O)n(-c2ccccc2)n1C	-7%	8%
Cc1cccc(N2C(=O)CC(N3CCN(C(=O)c4ccccc4)CC3)C2=O)c1 (stereo not drawn)	-3%	-8%
CCn1cc(S(=O)(=O)c2ccccc2)c(=O)c2cc(F)c(N3CCN(C)CC3)cc21	-3%	2%
O=C(Nc1ccc(N2CCC(c3ccccc3)C2)c(C(=O)O)c1)c1ccc(Cl)cc1 (stereo not drawn)	.	16%
Cc1cc(C)c(S(=O)(=O)NCc2cn3c(C)csc3n2)cc1C	5%	4%
N#Cc1cccc(-c2cn(S(=O)(=O)c3ccc(Cl)cc3)nc2N)c1	-11%	-3%
CCC(=O)NC1(C(F)(F)F)C(=O)Nc2c1c(=O)n(C)c(=O)n2C (stereo not drawn)	0%	-16%
CCCCCCCC(=O)NNC(=O)c1ccc([N+](=O)[O-])cc1	9%	-14%
CCOc1ccc(CSC(=N)N)cc1	28%	3%

Four of the compounds above, as labelled records:
compound: COc1ccc(-n2c(N)c(C#N)c3ccc([N+](=O)[O-])cc3c2=O)cc1
  N370S GC mod: 4%
  FEN1 inh: 4%

compound: COCCCNC(=S)NNC(=O)c1ccc(S(=O)(=O)N2CCC(C)CC2)cc1
  N370S GC mod: -3%
  FEN1 inh: 10%

compound: CCOc1cc(C(N)=O)cc(Br)c1OC
  N370S GC mod: 8%
  FEN1 inh: -6%

compound: CC(C)(C)C(=O)CSc1ccc(S(=O)(=O)N2CCN(Cc3ccccc3)CC2)cn1
  N370S GC mod: .
  FEN1 inh: -15%

Further records follow:
SMILES	N370S GC mod	FEN1 inh
Cc1ccc(CNC(=O)C2CC(c3cccc(F)c3)=NO2)cc1 (stereo not drawn)	-2%	18%
O=C1C(=O)N(CCS(=O)(=O)c2ccccc2)c2ccccc21	3%	7%
CCOC(=O)N1CCN(C(=O)CSc2nc(-c3cccc(C)c3)ns2)CC1	-20%	-16%
Cc1ccc(Oc2ccc(S(=O)(=O)NCC(C)(C)N3CCOCC3)cc2)cc1	0%	-2%
CCN1CCCC1CNC(=S)Nc1ccc(C(C)=O)cc1 (stereo not drawn)	-5%	14%
O=S(=O)(c1ccccc1)c1nc(-c2ccccc2F)oc1NCc1cccnc1	2%	1%
COc1ccc(NC(=O)CN(c2ccc(C)cc2)S(=O)(=O)c2cccc3nonc23)cc1OC	.	10%
NC(=O)c1c(NC(=S)Nc2ccccc2)sc2c1CCCC2	4%	-4%
Cc1ccc(-n2nnc3c(=O)n(CC(=O)NCc4ccccc4)cnc32)cc1	-1%	12%
CCC(C)(C)n1nnnc1C(c1cccs1)N1CCN(c2nc3ccccc3s2)CC1 (stereo not drawn)	?	-21%
CCN1CCN(c2nc(Nc3cccc(OC)c3)nc(N)c2[N+](=O)[O-])CC1	-11%	-19%
CC(C)c1ccc(NC2CCCN(C(=O)c3cccs3)C2)cc1 (stereo not drawn)	27%	-4%
Cc1ccc2oc(=O)c3cnn(CC(=O)N(CCCN4CCOCC4)Cc4ccco4)c3c2c1	-9%	16%
O=C(CNS(=O)(=O)c1cccc2nonc12)NCc1ccc(F)cc1	0%	1%
CCCNC(=O)Cc1ncn[nH]1	-5%	5%

Structures from the list above with a furan ring, fused or not, in the order listed:
SMILES	N370S GC mod	FEN1 inh
COc1ccc(-c2[nH]ncc2CN2CCN(C(=O)c3ccco3)CC2)cc1F	0%	15%
Cc1ccc2oc(=O)c3cnn(CC(=O)N(CCCN4CCOCC4)Cc4ccco4)c3c2c1	-9%	16%

Further entries follow.
SMILES	N370S GC mod	FEN1 inh
CC1(C)C(=O)Nc2ccccc2N1C(=O)Cn1ncc(Cl)c(Cl)c1=O	1%	15%
CC(NC(=O)COC(=O)CN1C(=O)c2ccccc2C1=O)c1ccccc1 (stereo not drawn)	.	7%
COc1ccc(C(=O)N=c2sccn2C)cc1	-5%	0%
Cc1cc2cc(CNC(=O)Nc3ccccc3)ccc2[nH]1	11%	14%
COC(=O)c1cc2c(=O)c3ccccc3oc2nc1/C=C/N(C)C	-2%	-25%
COc1ccc(N2CCN(CCCNC(=O)C(=O)c3c[nH]c4ccccc34)CC2)cc1	-14%	0%
Cc1[nH]c2ccccc2c1CCN(Cc1cccnc1)C(=S)NC(C)(C)C	4%	-4%
CC1CCCCN1C(=O)CNCC1CCCO1 (stereo not drawn)	3%	3%
Cc1cc(C)n(-c2ccc(C(=O)O)cc2[N+](=O)[O-])n1	-4%	-3%
COC(=O)c1ccc(NC(=O)CSc2nnc(COc3ccccc3)n2C)cc1	1%	9%
COc1ccc(OCCSc2nnc(C(C)NC(=O)c3ccccc3F)n2C)cc1 (stereo not drawn)	4%	11%
COc1cc(/C=N/NC(=S)NC2CC3CC2C2C=CCC32)ccc1O (stereo not drawn)	?	-18%
Cc1cc(C)cc(N(C(=O)c2csnn2)C(C(=O)NC2CCCC2)c2ccccn2)c1 (stereo not drawn)	1%	-2%
CCCCOC(=O)c1ccc(NC(=O)Nc2ccc(OC)c(OC)c2)cc1	-3%	-15%
CCn1c(SCC(=O)N(C)c2c(N)n(Cc3ccccc3)c(=O)[nH]c2=O)nc2ccccc21	7%	1%
COc1ccc(NS(=O)(=O)c2cccc(C(=O)NCCCN3CCOCC3)c2)cc1	2%	-5%
Cn1c(Cc2ccccc2)nnc1SCC(=O)Nc1ccc(N2CCOCC2)cc1	-1%	4%
O=C1C2C3c4ccccc4C(c4ccccc43)C2C(=O)N1c1cccnc1 (stereo not drawn)	-17%	-14%
Cc1c(NC(=O)N(C)C)c(=O)n(-c2ccccc2)n1C	16%	-9%
O=C(Nc1ccccc1)NN1CC(=O)N(c2ccc(Cl)cc2)CC1=O	-2%	-9%
Oc1ccccc1CN1CCN(C(c2ccccc2)c2ccccc2)CC1	-28%	3%
O=C(NCC(=O)N1CCCCC1)c1sc2ccccc2c1Cl	.	-5%
CCOC(=O)N1CCN(c2nc(-c3cccs3)cc(C(F)(F)F)n2)CC1	6%	2%
CCc1c(C)[nH]c2c1C(=O)[C@H](CN1CCOCC1)CC2	-22%[21.6 µM]	.
CC[C@H](C)NC(=O)CCCCCn1c(=S)[nH]c2c([nH]c3ccc(OC)cc32)c1=O	-1%	11%
Cc1noc2ncnc(Oc3ccccc3)c12	1%	6%
COCC(=O)N1CCC2(CC1)CN(c1ccccn1)C2	9%	.
CCc1noc(C)c1C(=O)N1CCCC(CCC(=O)NCc2cccc(OC)c2)C1 (stereo not drawn)	3%	-1%
Cc1ccc(S(=O)(=O)NC(=O)NN2CC3CCCC3C2)cc1 (stereo not drawn)	0%&13%&-5%	33%
Cn1ncc(Cl)c1C(=O)N1CCN(S(=O)(=O)c2ccc(Cl)s2)CC1	3%	2%
O=C(Nc1nc2ccccc2s1)c1cccc(S(=O)(=O)N2CCc3ccccc32)c1	-2%	-14%
COc1ccc(CC(=O)N2N=C(c3ccncc3)CC2(O)C(F)(F)F)cc1 (stereo not drawn)	-4%	-11%
O=c1cc(C(F)(F)F)[nH]c2ccc(C(F)(F)F)cc12	0%	11%
C=CCN=C(C)C1=C(O)C(C)OC1=O (stereo not drawn)	0%	-1%
CCCN(C(=O)COC(=O)CC1CCCCC1)c1c(N)n(Cc2ccccc2)c(=O)[nH]c1=O	-11%	4%
Cc1ccc(C(=O)N/C(=C\c2ccccc2)C(=O)NCC2CCCO2)cc1 (stereo not drawn)	-4%	0%
O=C(CCn1ccnc1)Nc1cc(Cl)ccc1O	-10%	-1%
CCOC(=O)c1cc(C(=O)NN)c(C)nc1C	?	-5%
Cc1ccc(C(C)C)cc1OCC(=O)Nc1ccccc1N1CCCC1	3%	-1%
COc1nnc(-c2ccc(N3CCOCC3)c(NC(C)=O)c2)c2ccccc12	2%	9%
CCn1cc(C(=O)NCCc2ccc(Cl)cc2)c(=O)c2cc(S(=O)(=O)N(C)C)ccc21	-5%	19%
COC(=O)CCN1CCN(S(=O)(=O)c2cccc(Br)c2)CC1	-6%	1%
COCCNC(=O)c1cc(-c2ccc3c(c2)OCO3)on1	5%	-7%
O=C(NCc1ccc(F)cc1)C(c1ccccc1)N(CC1CCCO1)C(=O)Cn1nnc2ccccc21 (stereo not drawn)	28%	-16%
CCc1cccc(C)c1NC(=O)CCNC(=O)c1cccc(C)c1	-6%	8%

Single records (already shown):
COC(=O)CCN1CCN(S(=O)(=O)c2cccc(Br)c2)CC1 reads N370S GC mod: -6%; FEN1 inh: 1%
COc1nnc(-c2ccc(N3CCOCC3)c(NC(C)=O)c2)c2ccccc12 reads N370S GC mod: 2%; FEN1 inh: 9%
COCCNC(=O)c1cc(-c2ccc3c(c2)OCO3)on1 reads N370S GC mod: 5%; FEN1 inh: -7%

Going on with the list.
SMILES	N370S GC mod	FEN1 inh
Cc1nc(SCC(=O)Nc2nccs2)c(C#N)c(C)c1C	.	6%
Cc1cccc(Cn2nnc3ccccc32)c1O	-1%	12%
C/C(=N\NC(=O)c1ccc(CSc2nncn2C)cc1)c1ccc2ccccc2c1	16%	0%
COc1ccc(CN(Cc2nc3ccccc3c(=O)[nH]2)C(=O)NC2CCCCC2)cc1	8%	3%
Cc1ccccc1NS(=O)(=O)c1ccc2[nH]cc(C(=O)N(C)Cc3ccco3)c(=O)c2c1	-3%	-2%
CC(C)C(NC(=O)c1ccccc1)C(=O)NC1CCCc2ccccc21 (stereo not drawn)	.	23%
Cc1nc2cc(NS(=O)(=O)c3ccc(Br)cc3)ccc2n1C	10%	13%
O=C(Cc1ccccc1)Nc1ccc(N2CCCC2)cc1	-1%	?
COc1cccc(NC(=O)Nc2c(C)n(C)n(-c3ccccc3)c2=O)c1	0%	-4%
O=C(Nn1cnc2ccccc2c1=O)c1c(F)cccc1F	-9%	20%
CC1(c2ccccc2)NC(=O)N(CC(=O)Nc2ccc(S(=O)(=O)Nc3ncccn3)cc2)C1=O (stereo not drawn)	-3%	1%
O=C(CCC(=O)c1ccc(Oc2ccccc2)cc1)Nc1ccc(C(=O)O)cc1	2%	18%
CCN1CCCC1CN(Cc1cc2cc(C)ccc2[nH]c1=O)C(=O)Nc1ccccc1OC (stereo not drawn)	9%	6%
Cc1ccc(NC(=O)C2COc3ccccc3O2)cc1 (stereo not drawn)	-1%	0%
COCCNC(=O)Cn1c(=O)oc2cc(S(=O)(=O)N3CC(C)CC(C)C3)ccc21 (stereo not drawn)	-19%	-9%
Cc1c(S(=O)(=O)Nc2cccc3ccccc23)c(=O)n(C)c(=O)n1C	-24%	1%
COc1ccc(/C=C(\NC(=O)c2ccc(Cl)cc2)C(=O)NCCCN2CCOCC2)cc1OC	-3%	-11%
Cc1ccc(OCC(=O)N2CCCCC2)c(Br)c1	5%	0%
O=C1c2ccccc2CN1CCSC(=S)N1CCSCC1	0%	.
CC(=O)N1CCN(c2nc(CC(C)C)c3c(c2C#N)CCC3)CC1	1%	1%
Cc1ccc2c(Cl)cc(Cl)c(OCC(=O)O)c2n1	16%	0%
CCOC(=O)N1CCC(n2c(=S)[nH]c3ccccc3c2=O)CC1	7%	-4%
